From PubChem
Vaccinia stage = Vaccinia orthopox stage-specific inhibition. Vaccinia-infected cells, mCherry/Venus stage reporter fluorescence; hits give low values; some inactives read as strong as hits. activity change (mCherry), % (test concentration not listed). 89,000 tested, 0.01% active. AID 1053133;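 active means mCherry past -33% and 40 or more points under the early reporter, replicates agreeing; inconclusive means past -33% without that gap or agreement; tested in A549 cells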;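 further: scaled between vehicle wells and reference inhibitor wells; 23 nL library stock went into each well; one replicate is shown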
Vaccinia stage Venus = second read-out of Vaccinia stage, no call of its own (marks repeat the call); activity change (Venus), %; measured here: Venus reporter, other viral stage;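 negative = less Venus signal; first of two replicates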
* marks the source's active call; other numbers are inactive results.

How did CO[C@@H]1CN(C)C(=O)c2ccc(NC(=O)C3CC3)cc2OC[C@H](C)N(Cc2ccccc2)C[C@@H]1C do in these assays?
Vaccinia stage: -5.4; Vaccinia stage Venus: 1.3

What do the screens show for `COc1ccc(NC(=O)N2CC3(C2)CN(C(C)=O)[C@@H](CO)c2[nH]c4cc(OC)ccc4c23)cc1`?
Vaccinia stage: 9.8; Vaccinia stage Venus: -0.4

How did COc1ccc2c3c([nH]c2c1)[C@H](CO)N(S(C)(=O)=O)CC31CCN(CC2CC2)CC1 do in these assays?
Vaccinia stage: -33.1; Vaccinia stage Venus: -24.4

What do the screens show for `O=C(C1CCOCC1)N1CC2(C1)[C@H](c1ccccc1)[C@@H](CO)N2C(=O)CC1CC1`?
Vaccinia stage: 5.0; Vaccinia stage Venus: 11.1

Results for CCNC(=O)C[C@@H]1CC[C@H]2[C@@H](COc3ccc(NC(=O)c4ccc(C(F)(F)F)cc4)cc3C(=O)N2C)O1 ?
Vaccinia stage: -4.7; Vaccinia stage Venus: -6.1

What do the screens show for `C[C@@H]1CN([C@H](C)CO)C(=O)c2cc(-c3ccc(C#N)cc3)cnc2O[C@H]1CN(C)C(=O)CC1CC1`?
Vaccinia stage: 15.9; Vaccinia stage Venus: 7.1

Results for CO[C@@H]1CN(C)C(=O)c2ccc(NS(C)(=O)=O)cc2OC[C@H](C)N(CC2CCCCC2)C[C@H]1C ?
Vaccinia stage: -16.9; Vaccinia stage Venus: -11.4

How did C[C@@H]1CN([C@@H](C)CO)C(=O)c2cc(NC(=O)Cn3cnnn3)ccc2O[C@@H]1CN(C)S(=O)(=O)c1cn(C)cn1 do in these assays?
Vaccinia stage: 6.2; Vaccinia stage Venus: 2.0

Results for O=C1C[C@@](C(=O)NCCN2CCOCC2)(c2ccc([N+](=O)[O-])cc2)[C@@H](c2ccc(CO)cc2)N1CC12CC3CC(CC(C3)C1)C2 ?
Vaccinia stage: inconclusive

How did CO[C@H]1CN(C)C(=O)c2ccc(NC(=O)Nc3cc(F)ccc3F)cc2OC[C@@H](C)N(C)C[C@H]1C do in these assays?
Vaccinia stage: -6.1; Vaccinia stage Venus: 6.4

What do the screens show for `O=C(c1cccc(F)c1)N1CCCCN2[C@H](C1)[C@@H](c1ccc(C#CC3(O)CCCC3)cc1)[C@@H]2CO`?
Vaccinia stage: 2.0; Vaccinia stage Venus: -3.5

How did C[C@@H]1CCCCO[C@@H](CN(C)Cc2ccc(Cl)c(Cl)c2)[C@H](C)CN([C@@H](C)CO)C(=O)c2cc(NS(=O)(=O)c3cccs3)ccc2O1 do in these assays?
Vaccinia stage: inconclusive

What do the screens show for `CCNC(=O)[C@@H]1[C@@H](CO)[C@@H]2Cn3c(ccc(C4=CCCCC4)c3=O)[C@@H]2N1C(=O)c1cnccn1`?
Vaccinia stage: 14.4; Vaccinia stage Venus: 9.0

What do the screens show for `Cc1ccc(-c2ccc([C@H]3[C@H](CO)N4C(=O)CN(C(=O)CN5CCOCC5)C[C@@H]34)cc2)cc1`?
Vaccinia stage: -0.4; Vaccinia stage Venus: 1.1

How did O=C(C[C@H]1C=C[C@H](NS(=O)(=O)c2ccccc2)[C@H](CO)O1)N1CCN(c2ccccc2)CC1 do in these assays?
Vaccinia stage: -0.2; Vaccinia stage Venus: 2.8

What do the screens show for `CCNC(=O)[C@H]1[C@H](CO)[C@H]2Cn3c(ccc(-c4ccc(OC)cc4)c3=O)[C@@H]1N2S(C)(=O)=O`?
Vaccinia stage: 16.4; Vaccinia stage Venus: 18.0

Results for COCC#Cc1ccc2c(c1)O[C@H](CN(C)C(=O)C1CC1)[C@@H](C)CN([C@@H](C)CO)S2(=O)=O ?
Vaccinia stage: 5.8; Vaccinia stage Venus: -2.1

What do the screens show for `O=C(C[C@H]1CC[C@@H]2[C@H](COC[C@H](O)CN2S(=O)(=O)c2ccccc2)O1)NCc1ccc2c(c1)OCO2`?
Vaccinia stage: 9.2; Vaccinia stage Venus: 6.3

How did COc1ccc(-c2ccc([C@@H]3[C@@H](CO)N(C(=O)C4CCCC4)[C@H]3C#N)cc2)cc1 do in these assays?
Vaccinia stage: 8.8; Vaccinia stage Venus: 11.4

What do the screens show for `CC(C)NC(=O)N1[C@@H](C#N)[C@H](c2ccc(C#CC3CC3)cc2)[C@@H]1CO`?
Vaccinia stage: -17.7; Vaccinia stage Venus: -4.9

Results for C[C@H](O)C#Cc1cnc2c(c1)C(=O)N([C@H](C)CO)C[C@@H](C)[C@@H](CN(C)C(=O)CN(C)C)O2 ?
Vaccinia stage: 17.7; Vaccinia stage Venus: 11.5

How did O=C(O)[C@H]1[C@H](CO)[C@H]2Cn3c(ccc(-c4ccncc4)c3=O)[C@@H]1N2C(=O)C1CCCC1 do in these assays?
Vaccinia stage: 10.2; Vaccinia stage Venus: 1.9

Results for CC(C)NC(=O)Nc1ccc2c(c1)CC(=O)N([C@@H](C)CO)C[C@H](C)[C@@H](CN(C)Cc1ccncc1)O2 ?
Vaccinia stage: 12.9; Vaccinia stage Venus: 6.3

How did COc1ccccc1NC(=O)N1CC(=O)N2[C@H](C1)[C@@H](c1ccc(C#Cc3ccccc3)cc1)[C@@H]2CO do in these assays?
Vaccinia stage: inconclusive

Results for Cc1noc(C)c1S(=O)(=O)Nc1ccc2c(c1)CC(=O)N([C@@H](C)CO)C[C@H](C)[C@@H](CN(C)S(=O)(=O)c1cccs1)O2 ?
Vaccinia stage: 6.9; Vaccinia stage Venus: 0.4

What do the screens show for `CC(C)NC(=O)Nc1ccc2c(c1)C(=O)N([C@@H](C)CO)C[C@H](C)[C@@H](CN(C)C(=O)NC(C)C)O2`?
Vaccinia stage: -4.3; Vaccinia stage Venus: -0.9

What do the screens show for `O=C(NCC[C@H]1CC[C@H](NC(=O)c2cccnc2)[C@H](CO)O1)Nc1ccc(Cl)cc1`?
Vaccinia stage: 0.4; Vaccinia stage Venus: 5.5

How did CO[C@@H](CN(C)C(=O)C1CCOCC1)[C@@H](C)CN([C@H](C)CO)S(=O)(=O)c1ccccc1 do in these assays?
Vaccinia stage: 6.2; Vaccinia stage Venus: 4.8

How did COc1ccccc1CNC(=O)C[C@@H]1C[C@@H]2c3cc(NC(=O)c4ccc5c(c4)OCO5)ccc3O[C@@H]2[C@@H](CO)O1 do in these assays?
Vaccinia stage: -19.9; Vaccinia stage Venus: -16.5

What do the screens show for `COc1ccc(S(=O)(=O)Nc2ccc3c(c2)C(=O)N([C@@H](C)CO)C[C@@H](C)[C@H](CN(C)C(=O)Nc2ccc(C(F)(F)F)cc2)OCCCC[C@H](C)O3)cc1`?
Vaccinia stage: -11.2; Vaccinia stage Venus: -10.1

Results for COc1ccccc1-c1ccccc1[C@@H]1[C@@H](C#N)N(C(=O)C2CCOCC2)[C@H]1CO ?
Vaccinia stage: 8.9; Vaccinia stage Venus: 3.2

How did CNC[C@H]1OCCCC[C@H](C)Oc2ccc(NS(C)(=O)=O)cc2C(=O)N([C@H](C)CO)C[C@@H]1C do in these assays?
Vaccinia stage: -5.2; Vaccinia stage Venus: 11.7

What do the screens show for `C[C@H](CO)N1C[C@H](C)[C@@H](CN(C)C(=O)Nc2ccccc2)OCCCC[C@H](C)Oc2ccc(NC(=O)Nc3ccccc3)cc2C1=O`?
Vaccinia stage: 6.5; Vaccinia stage Venus: 0.1

Results for Cc1noc(C)c1NC(=O)Nc1ccc2c(c1)C(=O)N([C@@H](C)CO)C[C@@H](C)[C@H](CN(C)Cc1ccccc1)O2 ?
Vaccinia stage: -2.7; Vaccinia stage Venus: -5.5

What do the screens show for `C[C@H]1CN([C@@H](C)CO)C(=O)c2cc(NS(=O)(=O)c3ccccc3)ccc2O[C@@H]1CN(C)C(=O)Nc1ccc2c(c1)OCO2`?
Vaccinia stage: 8.2; Vaccinia stage Venus: 13.3

What do the screens show for `C[C@@H]1CN([C@@H](C)CO)C(=O)c2cc(NC(=O)NC3CCCCC3)ccc2O[C@@H]1CN(C)S(=O)(=O)c1ccc(Cl)cc1`?
Vaccinia stage: 0.1; Vaccinia stage Venus: -2.3

What do the screens show for `CN1c2ccc(-c3ccc(C#N)cc3)cc2[C@@H]2[C@@H](CCN2C(=O)Nc2cccc(F)c2)[C@@H]1CO`?
Vaccinia stage: -17.3; Vaccinia stage Venus: -12.7

What do the screens show for `COc1ccc(S(=O)(=O)N[C@@H]2CC[C@H](CCn3cc(-c4cccc(F)c4)nn3)O[C@@H]2CO)cc1`?
Vaccinia stage: -8.6; Vaccinia stage Venus: -9.3

How did Cc1nc(N2[C@H](CO)[C@H](c3ccccc3)[C@H]2CNCC2CCC2)sc1C do in these assays?
Vaccinia stage: -10.4; Vaccinia stage Venus: -3.5

How did O=C(NC1CCC1)[C@@H]1[C@@H](CO)[C@@H]2Cn3c(ccc(-c4cncnc4)c3=O)[C@@H]2N1C(=O)NC1CCCC1 do in these assays?
Vaccinia stage: 5.3; Vaccinia stage Venus: -0.5

As a working copy, two of the compounds above:
What do the screens show for `C[C@@H]1CN([C@@H](C)CO)C(=O)c2cc(NC(=O)NC3CCCCC3)ccc2O[C@@H]1CN(C)S(=O)(=O)c1ccc(Cl)cc1`?
Vaccinia stage: 0.1; Vaccinia stage Venus: -2.3

What do the screens show for `CN1c2ccc(-c3ccc(C#N)cc3)cc2[C@@H]2[C@@H](CCN2C(=O)Nc2cccc(F)c2)[C@@H]1CO`?
Vaccinia stage: -17.3; Vaccinia stage Venus: -12.7

Reprinted at random: three entries already listed
What do the screens show for `CN1c2ccc(-c3ccc(C#N)cc3)cc2[C@@H]2[C@@H](CCN2C(=O)Nc2cccc(F)c2)[C@@H]1CO`?
Vaccinia stage: -17.3; Vaccinia stage Venus: -12.7

Results for Cc1noc(C)c1S(=O)(=O)Nc1ccc2c(c1)CC(=O)N([C@@H](C)CO)C[C@H](C)[C@@H](CN(C)S(=O)(=O)c1cccs1)O2 ?
Vaccinia stage: 6.9; Vaccinia stage Venus: 0.4

What do the screens show for `COc1ccc(S(=O)(=O)N[C@@H]2CC[C@H](CCn3cc(-c4cccc(F)c4)nn3)O[C@@H]2CO)cc1`?
Vaccinia stage: -8.6; Vaccinia stage Venus: -9.3

The results go on:
How did O=C(NC1CCCC1)N1CC2(C1)[C@H](c1ccccc1)[C@H](CO)N2CC1CCCC1 do in these assays?
Vaccinia stage: -3.6; Vaccinia stage Venus: 2.9

How did C[C@@H](NC(=O)C[C@H]1C[C@H]2c3cc(NS(=O)(=O)c4ccc(F)cc4)ccc3O[C@H]2[C@H](CO)O1)c1ccccc1 do in these assays?
Vaccinia stage: -18.2; Vaccinia stage Venus: -15.2

Results for Cc1noc(C)c1S(=O)(=O)Nc1ccc2c(c1)CC(=O)N([C@@H](C)CO)C[C@H](C)[C@H](CN(C)S(=O)(=O)c1ccc(Cl)cc1)O2 ?
Vaccinia stage: 10.5; Vaccinia stage Venus: 4.6

How did COc1ccc(NC(=O)N(C)C[C@H]2OCc3ccccc3-c3c(n(C)c4ccccc34)C(=O)N([C@H](C)CO)C[C@@H]2C)cc1 do in these assays?
Vaccinia stage: inconclusive

Results for C[C@@H]1CN([C@H](C)CO)C(=O)c2cccc(NC(=O)CCCCCC(=O)Nc3ccccc3N)c2O[C@H]1CN(C)S(=O)(=O)c1ccc(Cl)cc1 ?
Vaccinia stage: -8.0; Vaccinia stage Venus: -3.4

How did C[C@H]1CN([C@@H](C)CO)S(=O)(=O)c2ccc(-c3ccncc3)cc2O[C@@H]1CN(C)S(C)(=O)=O do in these assays?
Vaccinia stage: 9.9; Vaccinia stage Venus: 10.0

How did COc1ccc(NC(=O)N[C@@H]2CC[C@@H](CCn3cc(-c4ccc(F)cc4)nn3)O[C@@H]2CO)cc1 do in these assays?
Vaccinia stage: 13.7; Vaccinia stage Venus: 11.0

What do the screens show for `CCN(C[C@@H]1[C@@H](c2ccccc2)[C@@H](CO)N1C(C)=O)C(=O)NC1CCCC1`?
Vaccinia stage: 4.9; Vaccinia stage Venus: 3.8

How did C[C@@H]1CN([C@H](C)CO)S(=O)(=O)c2ccc(C3=CCCCC3)cc2O[C@@H]1CN(C)C(=O)C1CCCCC1 do in these assays?
Vaccinia stage: inconclusive

How did CCNC(=O)C[C@@H]1C=C[C@H](NS(=O)(=O)c2ccc(C)cc2)[C@@H](CO)O1 do in these assays?
Vaccinia stage: 4.0; Vaccinia stage Venus: 12.1

Results for C[C@@H]1CN([C@@H](C)CO)C(=O)c2cc(-c3ccccc3F)cnc2O[C@H]1CN(C)Cc1cccc(F)c1 ?
Vaccinia stage: inconclusive; Vaccinia stage Venus: -16.3

How did C[C@@H]1CN([C@H](C)CO)C(=O)c2cc(NS(=O)(=O)c3ccc(F)cc3)ccc2O[C@@H]1CN(C)Cc1ccc(Oc2ccccc2)cc1 do in these assays?
Vaccinia stage: inconclusive

Results for O=C(Nc1ccccc1)N[C@H]1CC[C@H](CCn2cc(-c3ccccc3F)nn2)O[C@H]1CO ?
Vaccinia stage: -3.3; Vaccinia stage Venus: 4.1

What do the screens show for `CCS(=O)(=O)Nc1ccc2c(c1)C(=O)N(C)[C@H]1CC[C@@H](CC(=O)NCc3ccccc3F)O[C@@H]1CO2`?
Vaccinia stage: -0.1; Vaccinia stage Venus: 15.7

What do the screens show for `O=C(C[C@@H]1CC[C@@H]2[C@H](COC[C@@H](O)CN2C(=O)Nc2ccc(C(F)(F)F)cc2)O1)NC1Cc2ccccc2C1`?
Vaccinia stage: inconclusive

Results for CC(C)NC(=O)N(C)C[C@@H]1Oc2ccc(NC(=O)c3ccncc3)cc2CC(=O)N([C@@H](C)CO)C[C@H]1C ?
Vaccinia stage: 24.2; Vaccinia stage Venus: 7.0

Results for O=C(c1cccnc1)N1C[C@H]2[C@@H](c3ccccc31)[C@@H](CO)N2C(=O)C1CC1 ?
Vaccinia stage: 8.0; Vaccinia stage Venus: 6.4

Results for C[C@@H]1CN([C@@H](C)CO)C(=O)c2ccccc2-c2ccccc2CO[C@@H]1CN(C)Cc1ccc2c(c1)OCCN2C ?
Vaccinia stage: inconclusive

What do the screens show for `O=C(NC[C@H]1[C@@H](c2ccccc2)[C@@H](CO)N1Cc1ccccn1)NC1CCCC1`?
Vaccinia stage: 19.8; Vaccinia stage Venus: 17.2

A portion of the library; rates above refer to the full screens.
